E coli growth = E. coli growth inhibition; Escherichia coli growth, OD600, 23 h; active compounds read low; OD600 absorbance (no concentration beside the values); 330,000 tested, 0.21% active;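 active = OD600 absorbance below the run mean of sample wells minus 3.6 SD, in any replicate, cut at about 0.56 in these data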;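 note: stock transfer was 300 nL into about 60 µL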
A1 inh = inhibitors of the anti-apoptotic protein A1, read as caspase activation; 330,000 tested, 0.066% active; caspase activation, % (no concentration beside the values); AID 2462; MEF A1-2A-BIM cells, Caspase-Glo 3/7 luminescence, 3 h; percent of clofoctol response, vehicle zero;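 active = over half of replicate activation scores above 10%, or exactly half above 10 with the replicate mean above 10; inconclusive = replicate mean below 10 yet half the replicates above 10; inactive = over half of replicates below 10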;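 note: wells of about 30 µL received 50 nL stock; many hits fall short of the cut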
Vif TR-FRET = inhibitors of Vif binding to APOBEC3G peptide, primary screen, biochemical, TR-FRET, GST-Vif 1-94, biotin-A3G peptide, dose response retest (AID 1117319) | TR-FRET GST-Vif / biotin-A3G peptide binding; higher % means a stronger effect; test concentration not given here; strong numbers were not always called active | one-dose inhibition, %; IC50 in µM for titrated hits | 260,000 tested, 0.57% active;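 active = above the screen mean plus three standard deviations and confirmed in dose response; inconclusive = results disagree or hit not tested in dose response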;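 note: Vif residues 1-94 fused to GST binding biotinylated APOBEC3G peptide 110-148; 0% = full assay without inhibitor and 100% = GST in place of GST-Vif; retest series ran down from 100 µM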
Beta2AR agonist = human beta-2 adrenergic receptor agonism by FAP. 340,000 tested, 0.43% active. Am2.2-beta2AR cells, FAP receptor internalization, flow cytometry; reference of the scale not given here. P07550. response, % (no concentration beside the values);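 active = response above a set limit, near 3 SD of response in nonfluorescent compounds, cut at about 42% in these data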;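 note: stock transfer was 100 nL into about 11 µL; a reference agonist was the positive control; negative values mostly stem from fluorescent compounds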
Target sequence (P07550 whole entry, looked up): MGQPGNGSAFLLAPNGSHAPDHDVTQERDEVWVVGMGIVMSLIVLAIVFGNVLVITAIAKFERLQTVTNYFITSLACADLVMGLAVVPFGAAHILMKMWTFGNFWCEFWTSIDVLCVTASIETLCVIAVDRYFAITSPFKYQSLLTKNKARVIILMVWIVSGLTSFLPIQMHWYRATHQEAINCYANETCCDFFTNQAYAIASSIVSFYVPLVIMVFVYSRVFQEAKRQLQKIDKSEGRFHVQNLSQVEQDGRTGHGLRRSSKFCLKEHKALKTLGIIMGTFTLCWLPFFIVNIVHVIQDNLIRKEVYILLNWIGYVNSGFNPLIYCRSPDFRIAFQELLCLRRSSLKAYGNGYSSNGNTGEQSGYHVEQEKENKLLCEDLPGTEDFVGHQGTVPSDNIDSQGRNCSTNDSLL
HNF4A DNA FP = change in binding of human HNF4 alpha to DNA; 360,000 tested, 0.3% active; P41235; activity change, % at 10 µM; HNF4a-FITC DNA binding, fluorescence polarization, 1 h; in the data active = activity change above about 30%, passing the limit was not always enough;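 note: controls were the assay level and a saturating level of protein; the project sought stronger binding though the title names inhibitors; some compounds called inactive have numbers as strong as hits; positive values seem to mean higher polarization but the record does not say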
Target sequence (P41235 whole entry, looked up): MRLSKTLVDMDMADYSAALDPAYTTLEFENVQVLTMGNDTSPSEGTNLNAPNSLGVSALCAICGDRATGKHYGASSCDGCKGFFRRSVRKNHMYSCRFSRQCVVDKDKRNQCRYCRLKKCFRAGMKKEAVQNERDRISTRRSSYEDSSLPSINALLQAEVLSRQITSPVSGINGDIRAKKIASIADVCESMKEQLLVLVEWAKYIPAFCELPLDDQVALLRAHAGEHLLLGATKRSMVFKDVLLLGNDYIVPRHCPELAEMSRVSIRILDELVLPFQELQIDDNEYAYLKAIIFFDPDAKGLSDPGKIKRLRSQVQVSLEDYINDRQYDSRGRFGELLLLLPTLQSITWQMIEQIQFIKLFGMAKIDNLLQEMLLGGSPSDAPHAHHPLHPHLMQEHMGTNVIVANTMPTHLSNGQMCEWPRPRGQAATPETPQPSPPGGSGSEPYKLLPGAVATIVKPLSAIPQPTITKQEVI
LANA-H2A inh = blocks KSHV LANA binding to histone H2A/H2B. AID 2629. 320,000 tested, 0.6% active. inhibition, % (concentration not given with the values). Q9QR71. cell-free LANA-H2A/H2B peptide, fluorescence polarization; in the data active = inhibition mostly above about 10%, no sharp cut-off; inactive = mostly below about 6.7%;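 note: stock transfer was 7.5 nL into about 10 µL; 0% = median of vehicle wells and 100% = median of positive control wells; one replicate is shown; the record names a cut of 25% in any replicate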
UCH37 inh = human UCH37 deubiquitinating enzyme inhibition. 330,000 tested, 0.33% active. inhibition, % (test concentration not listed). AID 588478. Q9Y5K5. purified proteasome/UCH37, Ub-AMC cleavage fluorescence;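 active = mean of two replicates above 20%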;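 note: 0% = compound-free wells with enzyme and 100% = wells lacking proteasome; stock transfer was 100 nL into about 20 µL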
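Material: Human UCH37 enzyme supplied as purified proteasome complex | Schedule: 30 min compound-proteasome preincubation then 25 min substrate reaction, room temperature | Detection: AMC fluorescence from Ub-AMC cleavage, excitation 355 nm, emission 460 nm | Benchmarks: Wells without proteasome as full block, compound-free enzyme plus substrate as uninhibited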
* marks the source's active call; other numbers are inactive results; u = inconclusive; x = not tested or not shown; & = joins results of further samples.

SMILES	E coli growth	A1 inh	Vif TR-FRET	Beta2AR agonist	HNF4A DNA FP	LANA-H2A inh	UCH37 inh
Cc1ccc(C(C)C)c(OCC(=O)Nc2ccc3c(c2)nc(CCN2CCCCC2)n3C)c1	x	0.3	x	24	4.5	-0.7	x
O=C(Nc1cc(F)ccc1F)C1CCCO1 (stereo not drawn)	0.64	1.1	1%	-7	-0.2	-1.8	3.9
CC(=O)Nc1ccc(S(=O)(=O)NC2=C(N3CCN(C)CC3)C(=O)c3ccccc3C2=O)cc1	0.71	-0.1	x	-8	-3.2	2.6	18
COc1cccc(NS(=O)(=O)c2ccc3c(c2)CCN3C(C)=O)c1	0.71	0.4	x	-2	-0.2	-4.1	-0.3
CCOC(=O)c1cccc(Nc2nc(-c3cccnc3)nc3ccccc23)c1	0.75	0.1	-8%	-3	4.2	1.7	-39
O=C(NCc1ccco1)c1cc(-c2ccccc2)on1	0.71	-2.3	-2%	-7	3.3	0.2	3.3
Cc1nnc(SCC(=O)Nc2c(C)n(C)n(-c3ccccc3)c2=O)n1Cc1ccccc1	0.65	0.6	-9%	-2	0.3	-9.6	3.0
CCN(CC)c1ccc(NS(=O)(=O)c2ccc3c(c2)oc(=O)n3C)c(C)c1	0.78	-0.7	30%	-11	1.5	-4.5	0.9
Cc1cc(/C=C2/SC(=O)N(CC(=O)N3CCCC3)C2=O)c(C)n1C	0.69	-0.6	x	-2	2.6	2.0	11
COc1ccc(N(CC(=O)Nc2cccc(C(C)=O)c2)S(=O)(=O)c2ccc(NC(C)=O)cc2)cc1	0.71	0.9	x	6	3.4	-0.1	3.1
CSc1ncccc1C(=O)OCC(=O)Nc1cc(C(F)(F)F)ccc1N1CCOCC1	0.65	-0.6	-1%	-2	-1.2	-2.0	3.8
CCCc1cc(=O)[nH]c2nnc(SCC(=O)N3CC(C)OC(C)C3)n12 (stereo not drawn)	0.65	0.4	-2%	-5	2.9	3.2	4.0
O=C(NNC(=S)Nc1ccccc1)Nc1ccccc1	0.62	1.3	-9%	3	1.4	-2.5	1.0
COCC(C)n1c(C)cc(C(=O)Cn2c(=O)oc3ccccc32)c1C (stereo not drawn)	0.76	0.8	0%	0	-1.4	-7.7	-2.1
CC1CCCCN1C(=O)c1ccccc1NC(=O)c1ccco1 (stereo not drawn)	0.65	-3.2	29%	4	0.0	3.9	0.4
COc1ccc(Cc2nc(-c3ccccc3)no2)cc1	0.73	-0.9	7%	0	3.6	3.9	-1.4
COc1ccccc1C(=O)NCCC(=O)N1CCCCC1	0.7	-0.2	4%	2	-2.8	-18	0.9
Cc1ccc(C(=O)N2CCC(Cc3ccccc3)CC2)cc1S(=O)(=O)N1CCOCC1	0.68	x	0%	10	-3.7	x	-0.2
Cc1nn(CC(=O)NC2CCCCC2)c(=O)c2cccn12	0.74	0.4	x	6	1.6	-0.8	1.4
CC(C)(C)OC(=O)N[C@@H](Cc1ccccc1)C(=O)N1CCC(C(=O)N[C@@H](CCC(N)=O)C(=O)O)CC1	0.65	0.2	4%	5	2.7	-2.5	6.2
Cc1ccc(NC(=O)CSc2nnnn2C2CCCC2)cc1S(=O)(=O)N1CCOCC1	0.69	1.1	8%	-1	1.3	0.9	4.0
O=C(CCN1CCN(Cc2ccccc2)CC1)NNC(=O)Nc1cccc(C(F)(F)F)c1	0.68	-0.3	-5%	4	0.6	2.6	-2.1
COCCN=c1scc(-c2ccc3c(c2)NC(=O)CO3)n1/N=C(\C)c1ccc(O)cc1	x	1.0	x	6	3.9	5.2	x
COc1ccc(C2/C=C\CN(C(=O)C3CCCC3)[C@H](Cc3ccccc3)C(=O)N2Cc2ccc(F)cc2)cc1 (stereo partly drawn)	x	0.3	x	2	-3.0	-4.3	-0.7
CN1CCN(c2nc3c(c(=O)n(C)c(=O)n3C)n2CCSc2nc3ccccc3s2)CC1	0.78	1.1	0%	x	-3.5	7.5	0.4
COc1ccc(S(=O)(=O)N2CCOCC2)cc1NC(=O)c1ccc(=O)[nH]c1	0.63	x	4%	-3	-1.6	x	1.9
O=C(CNCC1CCCO1)Nc1ccccc1N1CCCCCC1 (stereo not drawn)	0.65	0.3	-1%	-3	-0.8	-3.4	3.8
CC(=O)c1c2c3c(cccc3n(C)c1=O)C(=O)c1ccccc1-2	0.67	0.0	x	x	x	9.1	2.7
Cc1cc(=O)n2nc(-c3ccccc3)sc2n1	0.69	-1.2	-4%	-5	0.9	6.4	-1.2
COc1cc(/C=N\N=C2/SC(CC(=O)O)C(=O)N2c2ccc(O)cc2)ccc1O (stereo not drawn)	x	0.1	u	1	0.2	-3.4	x
Cc1occc1C(=O)Nc1ccccc1NC(=O)c1ccoc1C	0.73	2.4	x	2	0.5	0.3	0.5
CC(=O)Nc1ccc(S(=O)(=O)Nc2nc3ccccc3s2)cc1	0.71	0.8	-4%	11	5.5	0.4	1.8
Cc1ccc(C(=O)NC2CCN(CC(=O)Nc3cccc([N+](=O)[O-])c3)CC2)cc1	0.65	-0.4	-3%	-8	-1.0	-5.9	-0.1
O=C(N/N=C/C=C\c1ccccc1[N+](=O)[O-])c1cc(-c2ccccc2)nc2ccccc12	x	-0.5	x	6	-1.7	4.0	x
Cc1nc2ccccc2n1CC(=O)c1ccccc1	0.61	0.5	6%	-4	2.0	-0.4	0.9
CCc1cccc(CC)c1NC(=S)Nc1ccc2cn[nH]c2c1	0.7	-0.2	20%	-2	19	-4.1	0.3
NCCCn1c(C(=O)c2cc(Cl)c(N)c(Cl)c2)c2ccccc2[n+]1[O-]	0.63	0.5	x	3	-4.6	2.0	1.4
O=C(OCc1nnc(-c2ccccc2)o1)c1cn(-c2ccccc2)nc1-c1ccccc1	0.73	-0.2	1%&4%	5	1.4	-9.3	1.6
O=C(O)c1ccccc1-c1cc2ccccc2[nH]1	0.7	0.0	x	9	0.5	-7.3	3.0
CNC(=O)c1sc(-c2cccnc2)nc1C	0.71	0.9	0%	-2	0.6	4.0	1.2
COc1cc(OC)c2c(-c3ccccc3)cc(=O)oc2c1C(CCN1CCCC1)c1ccc2c(c1)OCO2 (stereo not drawn)	0.7	0.3	x	19	-4.7	-5.3	1.9
N#Cc1c(SCc2ccc(Cl)cc2)sc(C(=O)c2ccccc2)c1N	0.73	-0.6	12%	3	4.2	6.7	x
O=[N+]([O-])c1ccccc1N/N=C/c1ccc2c(c1)OCO2	x	x	27%	1	3.2	x	x
Cc1[nH]nc2c1C(c1cn[nH]c1-c1ccc(F)cc1)C(C#N)=C(N)O2 (stereo not drawn)	0.71	-0.2	0%&74%	6	0.5	8.4	0.4
CCNC(=S)N1CCN(CC(=O)Nc2ccc(Br)cc2)CC1	0.71	0.3	x	-8	0.6	1.4	8.6
CCc1ccc(/C=C2\SC(=S)N(CCCC(=O)Nc3ccccc3C(=O)O)C2=O)cc1	x	0.0	x	-2	-5.2	-7.6	x
N#Cc1c(-c2ccc(Cl)cc2)ccn2nc(C3CCCCC3)nc12	0.72	0.4	7%	1	8.0	-1.7	-2.1
CC(=O)c1c(C)[nH]c(C(=O)OCc2cccc(C)c2)c1C	0.7	-0.7	x	-20	-4.7	0.9	4.3
O=C(COC(=O)C1CCCC1)Nc1ncc(Cl)cc1Cl	0.68	-0.3	18%	9	-7.2	1.9	2.2
CSc1cccc(NC(=O)CN(C)S(=O)(=O)c2ccc(C)cc2)c1	0.73	-0.6	31%	4	-0.9	1.0	1.7

Single entries from the entries so far.
CSc1ncccc1C(=O)OCC(=O)Nc1cc(C(F)(F)F)ccc1N1CCOCC1 in LANA-H2A inh = -2.0
N#Cc1c(-c2ccc(Cl)cc2)ccn2nc(C3CCCCC3)nc12 in E coli growth = 0.72

Further records:
SMILES	E coli growth	A1 inh	Vif TR-FRET	Beta2AR agonist	HNF4A DNA FP	LANA-H2A inh	UCH37 inh
COC(=O)c1ccc(C)c(NC(=O)C2CC(=O)N(C3CCCC(C)C3C)C2)c1 (stereo not drawn)	0.69	-1.0	6%	-7	-3.3	-5.9	4.2
Cc1sc(N)nc1-c1ccc(Oc2ccccc2)cc1	0.61	0.4	-7%	-6	-4.3	3.2	5.0
COc1cc(Br)ccc1NC(=O)c1ccccc1-c1ccccc1C(=O)O	0.68	1.1	x	2	1.0	6.8	4.3
O=C(O)C/C(=C\c1cc(Br)cs1)c1nc2ccccc2o1	0.69	0.4	x	5	3.3	1.4	-5.6
CCN1CCN(CCCNC(=O)CNC(=O)c2nn(-c3ccc(OC)cc3)c(=O)c3ccccc23)CC1	0.62	-0.1	11%	1	2.5	0.6	0.7
CC(C)CCN1CCN(Cc2cccn2-c2nccs2)CC1CCO (stereo not drawn)	0.68	-0.1	1%	2	3.4	0.2	0.8
CC(=O)N1CCN=C1SCc1ccccc1F	0.7	-0.2	-13%	-32	1.2	-3.9	5.3
COc1ccc(CN(Cc2cc3cc(OC)c(OC)cc3[nH]c2=O)C(=O)NC2CCCCC2)cc1	0.7	0.3	-15%	-2	2.5	-0.7	-40
CCc1ccc(Cc2cnc(NC(=O)C3=NCCN3)s2)cc1	0.67	-0.7	3%	9	-2.4	-0.6	6.6
O=C(NN=Cc1cc(Br)c(O)c(Br)c1)c1ccccc1NS(=O)(=O)c1cccs1	0.69	0.5	-1%	-3	-1.8	12	-14
CSc1ccc(S(=O)(=O)NCC(=O)OCC(=O)N(C)Cc2ccccc2)cc1[N+](=O)[O-]	0.67	-0.1	-9%	2	-1.7	-1.6	5.4
c1cc2c3c(cccc3c1)NC1(CCCCCC1)N2	0.68	u	u	12	6.8	2.1	-184
O=C(NCc1ccccc1)C(=O)Nc1nccs1	0.65	0.0	x	0	-3.0	-2.2	-0.2
Nc1nc2ccccc2n1C(=O)c1ccco1	x	x	u	-10	12	x	x
CCOC(=O)N1CCN(S(=O)(=O)c2ccc(OCC)c3ccccc23)CC1	0.68	-0.3	-5%	-7	0.8	1.4	0.7
NC(=O)c1ccc(NC(=O)COc2ccc([N+](=O)[O-])cc2Cl)cc1	0.65	0.6	x	-14	-3.8	0.2	7.9
COC(=O)CNc1nc(-c2ccccc2F)nc2ccccc12	0.78	-0.8	-4%	-14	-3.0	-1.1	-3.5
COc1cccc(/C=C/C(=O)OCC(=O)NC2CC2)c1	0.65	-1.5	11%	4	2.0	-0.8	-35
O=[N+]([O-])c1ccc(Sc2nc3ccccc3o2)c([N+](=O)[O-])c1	0.6	0.2	>100µM*	74*	-4.7	-0.5	8.0
N#CC1=C2SCN(c3ccccc3)CN2C(=O)CC1c1c(Cl)cccc1Cl (stereo not drawn)	0.73	0.0	16%	7	-0.3	-0.1	3.4
COc1ccccc1N/N=C(\C#N)C(=N)N1CCOCC1	x	0.5	7%	-4	-1.5	-4.9	x
CC(=O)N1CCN(C(=O)c2cccc(S(=O)(=O)N3CCOCC3)c2)CC1	0.69	x	u	2	-2.9	x	2.5
COc1ccccc1N1CCN(S(C)(=O)=O)CC1	0.7	-0.5	2%	0	3.8	-5.9	2.4
Cc1ccc(NC(=O)CN(C)C(=O)CSc2nnnn2C)cc1	0.73	1.3	x	-6	-2.4	-5.2	3.6
CC(=O)c1ccc(S(=O)(=O)N2CCN(C(=O)c3ccccc3Cc3ccccc3)CC2)cc1	0.7	0.2	-4%	6	-0.1	-0.2	2.1
CCc1ccn2cc(-c3ccc4c(c3)OCO4)nc2c1	0.64	-7.8	-11%	3	0.8	3.8	-172
Cc1ccc(NC(=O)c2cc(=O)c3ccccc3o2)cc1S(=O)(=O)N1CCCCC1	0.7	-0.6	3%	22	-0.3	1.6	4.2

High-throughput results deposited in PubChem by several laboratories.
